HNF4A DNA FP = change in binding of human HNF4 alpha to DNA | P41235 | HNF4a-FITC DNA binding, fluorescence polarization, 1 h | activity change, % at 10 µM | actives 0.3% (n = 360,000); in the data active = activity change above about 30%, passing the limit was not always enough;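 also: controls were the assay level and a saturating level of protein; the project sought stronger binding though the title names inhibitors; some compounds called inactive have numbers as strong as hits; positive values seem to mean higher polarization but the record does not say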
Target sequence (P41235 whole entry, looked up): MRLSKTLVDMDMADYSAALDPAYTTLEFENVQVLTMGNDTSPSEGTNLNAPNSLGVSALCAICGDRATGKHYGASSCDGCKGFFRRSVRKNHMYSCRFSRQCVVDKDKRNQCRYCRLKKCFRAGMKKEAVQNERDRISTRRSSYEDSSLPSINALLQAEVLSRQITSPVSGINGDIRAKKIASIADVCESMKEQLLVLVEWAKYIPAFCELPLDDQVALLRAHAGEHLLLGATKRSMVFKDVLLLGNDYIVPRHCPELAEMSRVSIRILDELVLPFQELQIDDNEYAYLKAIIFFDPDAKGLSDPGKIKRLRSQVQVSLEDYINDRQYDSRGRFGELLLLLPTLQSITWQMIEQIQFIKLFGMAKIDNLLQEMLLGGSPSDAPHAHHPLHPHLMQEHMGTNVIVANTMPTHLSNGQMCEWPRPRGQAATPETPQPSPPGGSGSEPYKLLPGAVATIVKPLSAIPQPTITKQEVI
FGF22 binding = shifts melting point of recombinant human FGF22; Q9HCT0; recombinant FGF22 thermal shift, SYPRO orange fluorescence; percent of sucrose octasulfate shift, DMSO zero; calls only at 9.99 µM; actives 1.5% (n = 340,000); AID 651658;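 active = melting point raised past a set limit in the mean and every replicate; three in four hits are not shown here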
Target sequence (Q9HCT0 whole entry, looked up): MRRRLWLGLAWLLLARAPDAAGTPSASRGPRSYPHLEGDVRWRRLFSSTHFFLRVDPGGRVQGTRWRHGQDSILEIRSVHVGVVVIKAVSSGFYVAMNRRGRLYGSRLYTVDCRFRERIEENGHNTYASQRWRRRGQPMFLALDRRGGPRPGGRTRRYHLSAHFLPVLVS
Ecoli growth = E. coli growth inhibition. OD600 absorbance (no concentration beside the values). actives 0.21% (n = 330,000). Escherichia coli growth, OD600, 23 h; hits give low values;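 active = OD600 absorbance below the run mean of sample wells minus 3.6 SD, in any replicate, cut at about 0.56 in these data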;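 also: stock transfer was 300 nL into about 60 µL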
UCH37 DUB inh = human UCH37 deubiquitinating enzyme inhibition | Q9Y5K5 | purified proteasome/UCH37, Ub-AMC cleavage fluorescence | inhibition, % (test concentration not listed) | actives 0.33% (n = 330,000);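 active = mean of two replicates above 20%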;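 also: 0% = compound-free wells with enzyme and 100% = wells lacking proteasome; stock transfer was 100 nL into about 20 µL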
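Reagent: Ub-AMC substrate; assay system: Proteasome-associated human UCH37 deubiquitinase; controls: no-proteasome and no-compound wells; read-out: % inhibition of Ub-AMC cleavage fluorescence; timing: 30 min preincubation with enzyme, 25 min cleavage at room temperature; signal: AMC fluorescence from Ub-AMC cleavage, excitation 355 nm, emission 460 nm; buffer or medium: Tris-HCl pH 7.4 plus ovalbumin, ATP-MgCl2, DTT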
Beta2AR agonist = agonists of human beta-2 adrenergic receptor inducing internalization; Am2.2-beta2AR cells, FAP receptor internalization, flow cytometry; reference of the scale not given here; actives 0.43% (n = 340,000); response, % (concentration not given with the values); AID 504454;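 active = response above a set limit, near 3 SD of response in nonfluorescent compounds, cut at about 42% in these data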;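 also: stock transfer was 100 nL into about 11 µL; a reference agonist was the positive control; negative values mostly stem from fluorescent compounds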
LANA-H2A inh = blocks KSHV LANA binding to histone H2A/H2B | Q9QR71 | cell-free LANA-H2A/H2B peptide, fluorescence polarization | inhibition, % (no concentration beside the values) | actives 0.6% (n = 320,000); in the data active = inhibition mostly above about 10%, no sharp cut-off; inactive = mostly below about 6.7%;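 also: stock transfer was 7.5 nL into about 10 µL; 0% = median of vehicle wells and 100% = median of positive control wells; one replicate is shown; the record names a cut of 25% in any replicate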
ALR inh = blocks human ALR sulfhydryl oxidase activity; P55789; purified ALR, DTT oxidation, H2O2 HRP-luminol luminescence; inhibition, % (test concentration not listed); actives 3.8% (n = 290,000); AID 485317;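 active = mean and each replicate at 75% or more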;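 also: stock transfer was 7.5 nL into about 7.5 µL; 0% = neutral wells and 100% = wells with inactivated enzyme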
Target sequence (P55789 whole entry, looked up): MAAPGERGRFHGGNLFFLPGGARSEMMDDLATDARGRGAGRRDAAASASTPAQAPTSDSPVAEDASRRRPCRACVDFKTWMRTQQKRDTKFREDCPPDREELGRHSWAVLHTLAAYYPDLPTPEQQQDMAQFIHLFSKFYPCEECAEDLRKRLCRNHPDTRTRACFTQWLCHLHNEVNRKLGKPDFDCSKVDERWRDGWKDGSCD
An asterisk follows results filed as active; i = inactive; nt = no result given; + = active, no number.

Values in the order – Beta2AR agonist, HNF4A DNA FP, ALR inh, UCH37 DUB inh, FGF22 binding, Ecoli growth, LANA-H2A inh
> CN1CCN(S(=O)(=O)c2cccc(C(=O)Nc3cc(C(F)(F)F)ccc3N3CCCC3)c2)CC1
    2, -6.8, nt, -2.9, i, 0.69, nt
> O=C(CCN1CCc2ccccc2C1)c1ccc2c(c1)OCCO2
    5, 2.1, 98*, 0.8, nt, 0.6, -2.5
> Cc1c(C(=O)N2CCCC2)nnn1-c1nonc1N
    2, -1.8, -5, 1.5, nt, 0.74, 2.9
> O=C(N/N=C/c1cc2cc3c(cc2nc1Cl)OCO3)c1ccncc1
    -2, 3.3, -3, nt, i, nt, -0.4
> OCC[C@H]1C[C@@H](O)[C@H](O)[C@@]2(CCCO2)O1
    3, -2.4, -2, -1.1, i, nt, -0.2
> Cc1ccc(NC(=O)COc2ccc(/C=N/NC(=O)CSCc3ccccc3)cc2)cc1
    5, -2.8, 0, nt, nt, nt, 5.5
> COc1ccccc1C(=O)NCC(=O)N1CCN(S(=O)(=O)c2ccccc2C(F)(F)F)CC1
    7, 1.0, 3, -1.5, i, 0.71, -4.4
> CCOC(=O)C1(Cc2cccc(Cl)c2)CCCN(C(=O)c2cc(CC)on2)C1 (stereo unspecified)
    16, -0.8, -3, 2.1, i, 0.69, -0.4
> COC(=O)C1=C(C(=O)OC)[C@@H]2N(C)c3ccccc3[C@@]23C[C@@H](C(=O)OC)N(C(=O)COCc2ccccc2)C3=N1
    7, -2.0, -4, 0.5, nt, nt, 5.4
> COc1cc(C2c3cc4c(cc3OC(NCCc3ccccc3)C2C)OCO4)cc(OC)c1OC (stereo unspecified)
    19, 0.5, nt, nt, i, nt, nt
> COc1ccc(/C(O)=C2/C(=O)C(=O)N(c3ccccn3)C2c2ccc(OC)c(OC)c2)cc1 (stereo unspecified)
    3, 8.5, -3, 9.2, i, 0.63, 0.0
> COc1ccc(OC)c(Nc2ccc(Nc3cc(OC)ccc3OC)nn2)c1
    10, -4.5, 42, 2.7, +, 0.65, 2.8
> Cc1cc(-c2nnc(CCC(=O)N(CC3CCC3)CC3CCCO3)o2)no1 (stereo unspecified)
    -14, 5.4, 0, 2.7, i, 0.67, 4.1
> COc1ccc(Cl)cc1NC(=O)CN(C)C(=O)c1cc2ccccc2cc1OC
    5, -0.4, -4, -4.4, i, 0.66, -2.1
> CCc1ccc(N2CC(C(=O)N/N=C/c3ccccc3)CC2=O)cc1 (stereo unspecified)
    3, 3.4, 0, nt, i, nt, 2.8
> CCN(CCn1cccn1)C(=O)CC1C(=O)NCCN1Cc1ccc(F)c(F)c1 (stereo unspecified)
    1, 2.2, -15, 1.7, i, 0.7, -1.9
> COc1cccc(CNC(=O)Cc2ccc(S(=O)(=O)N3CCOCC3)s2)c1
    0, 6.1, nt, 0.2, i, 0.61, -2.8
> COc1ccc(S(=O)(=O)NCc2cc(-c3ccccc3Cl)no2)cc1
    -2, -3.2, -24, 3.4, i, 0.65, -0.7
> O=c1c(-c2ccccc2Cl)coc2c(CN3CCCCC3)c(O)ccc12
    3, -3.7, -11, i, i, 0.67, 0.5
> O=C(Nc1ncc(C(F)(F)F)cc1Cl)C1COc2ccccc2O1 (stereo unspecified)
    -2, -2.8, -4, 3.2, nt, 0.74, -4.0
> O=C(Cc1ccc(S(=O)(=O)N2CCOCC2)s1)N1CCN(S(=O)(=O)c2cccc(Cl)c2)CC1
    -4, 1.3, -1, 0.6, i, 0.69, -4.0
> CCOc1ccccc1CN1CCC(n2nccc2NC(=O)C2CCCC2)CC1
    0, 0.4, -2, -1.0, i, 0.68, 6.8
> CCOC(=O)C1=CN(Cc2cccc(F)c2)S(=O)(=O)N(CC)C1CCc1ccccc1 (stereo unspecified)
    -6, -1.7, nt, 1.5, i, 0.71, nt
> COc1ccccc1NS(=O)(=O)c1ccc(NC(=O)Cc2cccs2)cc1
    -6, -0.1, -18, 0.4, i, 0.7, 0.0
> Cc1cccc(Oc2c([N+](=O)[O-])c(=O)n(C)c3ccccc23)c1
    35, -0.2, 74, 2.7, i, 0.69, 5.7
> Cc1cc(C)cc(OC(=O)C23CCC(C)(C(=O)O2)C3(C)C)c1 (stereo unspecified)
    1, 2.1, 2, 2.7, i, 0.66, 3.1
> CCOC(=O)N1CCN(C(=O)COC(=O)c2ccc(Cl)nc2)CC1
    0, 0.0, 3, 3.3, i, 0.66, -4.6
> OCCN(Cc1ccccc1)Cc1ccccc1Cl
    -1, 2.7, -4, 4.5, nt, 0.72, 3.8
> O=C(Cc1nc2ccccc2[nH]1)c1ccc(Cl)cc1
    5, 5.7, 0, -2.7, i, 0.68, 4.5
> CC(=O)Nc1ccc(/C=C/c2nc(-c3ccccc3O)n[nH]2)cc1
    13, 0.9, 2, nt, i, nt, 2.7
> COc1ccc(C2NC(=S)NC3=C2CCc2ccccc23)cc1OC (stereo unspecified)
    -35, -1.1, -56, -28, nt, 0.71, 6.0
> CC(=O)c1cnc(-c2ccccn2)s1
    0, -7.7, 0, 1.5, i, 0.67, 18*
> C=CCn1c(Cc2cccs2)nnc1SCC(=O)NCc1ccco1
    -5, 2.3, 0, 4.0, nt, 0.72, -3.0
> COc1cc(OC)cc(C(=O)Nc2nnc(SCC(=O)NCC3CCCO3)s2)c1 (stereo unspecified)
    0, 2.3, 6, 7.0, i, 0.72, -37
> O=C(Nc1ccc2c(c1)OCCO2)C(=S)NCc1ccccc1
    -2, -1.4, nt, 5.1, i, 0.71, 0.2
> O=C(CN1C(=O)C(=O)N(C2CCCC2)C1=O)NCCc1ccc(F)cc1
    -2, 0.9, -10, 2.5, i, 0.67, 0.7
> O=C(CNCc1ccccc1Cl)NCc1ccco1
    4, -2.4, -1, 1.0, i, 0.62, 4.8
> COc1ccc(-c2noc(CN3CCCC(OCc4ccccn4)C3)n2)cc1 (stereo unspecified)
    -10, 3.2, nt, 3.8, i, 0.71, nt
> Cc1c(C)n(Cc2ccccc2)c2ncnc(N)c12
    -5, 0.8, nt, 2.2, nt, 0.71, 1.2
> Clc1ccc(Sc2ccccn2)cc1
    6, 2.2, nt, 0.6, i, 0.68, -2.6
> O=C(COC(=O)/C=C/c1ccc2c(c1)OCO2)Nc1ccc(S(=O)(=O)N2CCCC2)cc1
    -9, -7.0, -1, -13, i, 0.64, -0.2
> COC(=O)c1ccccc1C(=O)N(Cc1cccnc1)CC1CCCN(C2CCCCC2)C1 (stereo unspecified)
    -2, -0.8, -22, 5.8, i, 0.71, 1.7
> COc1ccc(C2=NOC(C(=O)NC(C)C)C2)cc1 (stereo unspecified)
    15, -2.4, 1, 2.9, nt, 0.68, 4.2
> CC(C(=O)NCc1ccccn1)c1ccc([N+](=O)[O-])cc1 (stereo unspecified)
    -6, 4.1, -9, 2.0, i, 0.71, 2.8
> Cc1ccccc1CSc1nc2n(n1)C(c1cccs1)C1=C(CCCC1=O)N2 (stereo unspecified)
    -6, 0.5, 4, -8.9, nt, 0.79, -1.3
> Cc1ccc(Cn2c(SC3CCOC3=O)nc3ccccc3c2=O)cc1 (stereo unspecified)
    -2, -0.9, -31, 3.1, nt, 0.7, 0.3
> Fc1ccccc1COc1ccc(C(=S)N2CCCC2)cc1
    -19, -2.6, nt, -0.6, nt, 0.65, -1.1
> CCCC(=O)n1nc(-c2cccnc2)nc1NCc1ccccc1
    -2, 0.5, nt, 5.2, i, 0.68, nt
> COc1ccc(C/C(C)=N/NC(=O)c2cccnc2)cc1
    4, 2.6, -5, nt, nt, nt, -2.7
> CC1(c2ccc(Cl)cc2)NC(=O)N(CN2CCOCC2)C1=O (stereo unspecified)
    -2, -0.6, -4, 6.2, i, 0.7, 1.2
> COc1ccc(C(=O)C2CCCN(C(=O)c3cc(C)on3)C2)cc1F (stereo unspecified)
    -2, -2.6, -2, 3.6, i, 0.7, 2.0
> COCCNC(=O)C(C)Oc1ccc(Cl)cc1Cl (stereo unspecified)
    -8, 0.3, 1, 3.1, nt, 0.68, 1.6
> O=C(Cn1nnc2c(cnn2-c2ccc(F)cc2)c1=O)c1ccccc1F
    4, 2.2, -8, -28, nt, 0.72, -7.7
> O=C(c1ccccc1)N1CCN(C2CCCCCC2)CC1
    -4, 0.6, -7, 0.5, nt, 0.7, -1.3
> N#Cc1cccc(NC(=O)CSc2n[nH]c(=O)[nH]c2=O)c1
    -21, 3.0, -3, nt, i, nt, -6.3
> Cc1sc2ccccc2[n+]1CC(=O)O
    2, 5.8, nt, 1.3, i, 0.68, -0.7
> COc1ccc(C)cc1NC(=O)CSc1nnnn1Cc1ccccc1
    3, 1.5, -3, 2.5, nt, 0.71, 0.7
> Cc1ccc(-c2cc(NC(=O)c3ccccc3)on2)cc1
    3, -2.3, -2, -10, i, 0.69, 6.3
> COc1cc(C2C(C#N)=C(N)Oc3n[nH]c(C)c32)ccc1OC(=O)c1ccccc1 (stereo unspecified)
    6, 5.0, 5, 3.4, nt, 0.7, 6.2
> COc1ccc(-c2nnc(SCC(=O)Nc3sc4c(c3C#N)CCCC4)n2-c2ccccc2)cc1
    7, -0.8, 2, 4.9, i, 0.73, 0.9

Next part
Values in the order – Beta2AR agonist, HNF4A DNA FP, ALR inh, UCH37 DUB inh, FGF22 binding, Ecoli growth, LANA-H2A inh
> COc1ccc(NC(=O)c2ccc(CNc3c(N4CCCC4)c(=O)c3=O)cc2)cc1Cl
    5, -0.9, nt, 3.5, i, 0.67, 1.6
> Cc1cc(N2CCN(c3ccccc3)CC2)n2c(n1)nc1ccccc12
    19, 5.6, 25, -39, nt, 0.7, 2.4
> Cc1onc(-c2c(Cl)cccc2Cl)c1C(=O)N1C=CC(C(F)(F)F)=NCC1
    0, -2.9, -5, 4.3, nt, 0.73, 0.9
> CSc1nsc2nc(=O)c(/C=C3\C=Nc4ccccc43)c(N)n12
    13, 1.4, 13, 0.8, +, 0.73, -23
> COc1ccc(-n2c(SCC(=O)N3CCOCC3)nc(O)cc2=O)cc1
    18, 5.9, 11, -1.2, i, 0.7, -10
> CCC(C)Sc1nc(C)nc2c1c(=O)n(C)c(=O)n2C (stereo unspecified)
    1, -3.0, 1, 4.2, i, 0.78, -0.5
> C/C(CCc1ccco1)=N\NC(=O)CNc1c(Br)cc(Br)cc1Br
    -1, 5.1, -15, nt, i, nt, 5.9
> O=C(OCc1c(Cl)nc2sccn12)c1cc2c(s1)CCCC2
    3, -3.9, -3, 4.1, nt, 0.7, 1.1
> Cc1[nH]nc(-c2ccc(O)cc2O)c1-c1nc2ccccc2s1
    -5, 1.7, 87*, -3.7, nt, 0.69, 1.1
> COc1ccc(NS(=O)(=O)c2ccc3nc(COc4ccc(Cl)c(C)c4)[nH]c3c2)cc1
    9, 2.9, -49, 0.7, nt, 0.69, 5.0

Retrieved by structure from above (2):
Values in the order – Beta2AR agonist, HNF4A DNA FP, ALR inh, UCH37 DUB inh, FGF22 binding, Ecoli growth, LANA-H2A inh
> Cc1onc(-c2c(Cl)cccc2Cl)c1C(=O)N1C=CC(C(F)(F)F)=NCC1
    0, -2.9, -5, 4.3, nt, 0.73, 0.9
> COc1ccc(NC(=O)c2ccc(CNc3c(N4CCCC4)c(=O)c3=O)cc2)cc1Cl
    5, -0.9, nt, 3.5, i, 0.67, 1.6

Some of the compounds tested; the hit share may differ from the screen's.
